HIV TAR-Tat: TAR RNA-Tat peptide displacers, HIV-1, primary screen, biochemical, FRET, FAM/TAMRA-labeled Tat. HIV-1 TAR RNA, Tat peptide displacement FRET; stronger effect = higher value. z-score (concentration not given with the values). hit rate 0.6% among 100,000;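 also: score is relative to mean and SD of negative controls; some compounds called inactive have numbers as strong as hits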
CDC25B-CDK2 inh: primary biochemical HTRF screen for blockers of M-phase inducer phosphatase 2 binding to CDK2/cyclin A. hit rate 0.72% among 94,000. HTRF CDC25B-CDK2/CyclinA binding, anti-His/anti-Flag; stronger effect = higher value. z-score (no concentration beside the values). P30305+P24941. AID 1259370, 2018;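 also: score is relative to mean and SD of negative controls; strong numbers were not always called active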
Numbers without * were called inactive; x = no result given.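 The calls were made as follows: active = z-score from 3 up in half or more of its runs; inactive = the rest.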

molecule	CDC25B-CDK2 inh	HIV TAR-Tat
COC(=O)C1SCCN1C(=O)c1cc(-c2ccc(Cl)cc2)oc1C (stereo not drawn)	-0.09	x
O=C(NCc1csc(-c2cccs2)n1)C1CCN(C(=O)c2ccco2)CC1	x	1.4
N#Cc1ccc(N2CCN(S(=O)(=O)c3cccc4nonc34)CC2)cc1	-0.37	x
O=C(c1ccccc1)n1ccc(-c2cccs2)n1	-0.94	x
CC(C)CC(=O)Nc1ccc2nc(NS(C)(=O)=O)sc2c1	x	-8.8
c1ccc(-c2ccc3c(c2)c2c4n3CCN=C4CCC2)cc1	0.94	-2.4
O=C(CN1C(=O)c2ccccc2Sc2ncccc21)NCc1cccs1	x	0.48
CC(NS(=O)(=O)c1ccc(F)cc1)C(c1cccs1)N1CCN(C)CC1 (stereo not drawn)	-1.1	x
O=C(NC1CCCCC1)C1CC(c2ccccc2F)=NO1 (stereo not drawn)	-0.23	0.42
O=C(CSc1ccc2nnc(-c3ccc(F)cc3)n2n1)NCc1ccco1	-1.8	x
CC1=C(c2ccc(F)cc2)S(=O)(=O)N=C1Nc1ccccc1Cl	x	-0.66
COC(=O)c1cc(S(=O)(=O)Nc2ccc(Cl)cc2F)cn1C	1.6	2
COc1ccc(Nc2nc(Nc3ccccc3)c3cnn(C)c3n2)c(OC)c1	x	1.4
Cc1nn(C)c(C)c1CNC(=O)c1cc2n(n1)C(C(F)(F)F)CC(c1ccco1)N2 (stereo not drawn)	0.02	0.04
COc1ccccc1Nc1cc(C)nc2nc(-c3ccco3)nn12	x	-5.5
Cc1ccc(S(=O)(=O)Nc2ccc(N3CCOCC3)c(Cl)c2)cc1	0.66	x
O=C(NCCc1csc(-c2cccs2)n1)C1CCN(C(=O)CCC2CCCC2)CC1	x	-0.86
CCOCc1cc(CN2CCN(C)CC2)c(O)c2ncccc12	0.26	0.23
O=C(C1Sc2nnc(-c3ccccc3)n2NC1c1ccc(F)cc1)N1CCCCC1 (stereo not drawn)	-0.88	0.24
c1ccc(C2NCCn3cccc32)cc1 (stereo not drawn)	x	1.2
COc1ccc(Nc2nc(Nc3ccc(OC)c(Cl)c3)c3cnn(C)c3n2)cc1	x	-0.15
Cc1cccc(NC(=O)c2cc3c(=O)n(C)c4ccccc4c3s2)n1	-0.15	x
Cc1cc(NC(=O)CSc2nc3c(c(=O)n2-c2ccc(F)cc2)SC(C)C3)no1 (stereo not drawn)	-3.1	-1.7
Cc1cc(=O)[nH]c(SCc2nc3ccccc3[nH]2)n1	-1.1	2
CC1CCC(NC(=O)C2(C)Cn3c(cc4occc43)C(=O)N2Cc2ccco2)CC1 (stereo not drawn)	x	19*
CCOC(=O)N1CCN(S(=O)(=O)c2cc(Br)cc3c2N(C(C)=O)CC3)CC1	-2.9	2.2
COc1cc(C(C2C(=O)CC(C)(C)CC2=O)C2C(=O)CC(C)(C)CC2=O)ccc1O	-1	1.7
CSc1scc(-c2cccs2)c1CNC(=O)c1ccccc1Cl	1.2	x
COC(=O)c1cnc(N2CCN(C3CCCCC3)CC2)c2ccccc12	x	0.37
O=C1Nc2cc(C(=O)N3CCN(C(=O)c4ccco4)CC3)ccc2N2CCCCC12 (stereo not drawn)	x	-0.04

Arranged by heavy-atom count (low to high): part of the list above
molecule	CDC25B-CDK2 inh	HIV TAR-Tat
Cc1cc(=O)[nH]c(SCc2nc3ccccc3[nH]2)n1	-1.1	2
CSc1scc(-c2cccs2)c1CNC(=O)c1ccccc1Cl	1.2	x
Cc1cccc(NC(=O)c2cc3c(=O)n(C)c4ccccc4c3s2)n1	-0.15	x
COC(=O)c1cnc(N2CCN(C3CCCCC3)CC2)c2ccccc12	x	0.37
CCOC(=O)N1CCN(S(=O)(=O)c2cc(Br)cc3c2N(C(C)=O)CC3)CC1	-2.9	2.2
COc1ccc(Nc2nc(Nc3ccc(OC)c(Cl)c3)c3cnn(C)c3n2)cc1	x	-0.15
COc1cc(C(C2C(=O)CC(C)(C)CC2=O)C2C(=O)CC(C)(C)CC2=O)ccc1O	-1	1.7

The list goes on:
molecule	CDC25B-CDK2 inh	HIV TAR-Tat
COC(=O)c1sc2cc(-c3ccc(F)cc3)sc2c1C	-1.6	x
CCc1c(C)sc(NC(=O)c2cc(C)no2)c1C#N	-1.4	-0.26
COc1cccc(C2Oc3ccccc3C3CC(c4cc(OC)ccc4O)=NN32)c1 (stereo not drawn)	1.7	0.36
COc1ccc(C(=O)CC2(O)C(=O)Nc3ccc(Cl)cc32)cc1 (stereo not drawn)	-0.18	0.42
O=C(c1ccc(F)cc1)N(Cc1ccccc1F)C1CCS(=O)(=O)C1 (stereo not drawn)	-0.96	1.2
C=CCOC(=O)C1=C(C)NC2=C(C(=O)CCC2)C1c1ccc(CC)cc1 (stereo not drawn)	-1.4	-0.78
CCOCCCNC(=O)c1oc2c(c1C)-c1[nH]ncc1CC2	-1.5	-0.62
COc1ccccc1NC(=O)NC(N)=O	-1.5	0.76
CC(C)(C)NC(=O)CSc1nc2ccc(Cl)cc2o1	0.97	-1.2
CN(C1CCCCC1)S(=O)(=O)c1ccc2c(c1)c(=O)c(C(=O)N1CCc3ccccc3C1)cn2C	-2.4	-0.4
COC(=O)C1=C(C)NC2=C(C(=O)CC(c3ccccc3Cl)C2)C1c1ccc(Br)cc1 (stereo not drawn)	0.97	2.8
Cc1ccc(N2CCN(S(=O)(=O)c3cc(Br)cnc3N)CC2C)cc1 (stereo not drawn)	-1.2	1.5
C=CCNC(=O)c1c(O)c2cccc3c2n(c1=O)CC3	x	2.3
C=CCSc1nc2c(c(=O)[nH]1)C(c1cccc(F)c1F)CC(=O)N2 (stereo not drawn)	-1.7	-0.48
Cc1cc(C)cc(S(=O)(=O)c2cn(C)c3cc(N4CCCC4)c(F)cc3c2=O)c1	x	-0.44
O=C1c2cccnc2C(=O)N1CCc1ccc(S(=O)(=O)N2CCC(Cc3ccccc3)CC2)cc1	x	0.83
COc1ccc(OC)c(-c2nc3c(c(=O)[nH]2)Cc2cc(Cl)ccc2O3)c1	-0.9	-0.17
O=C(Nc1cc(-c2ccccc2Cl)no1)c1cc(-c2cccnc2)nc2ccccc12	x	1.3
C=CCOC(=O)COc1ccc2c(c1)oc(=O)c1ccccc12	-4.9	1.9
COc1cccc(NC(=O)C(C)SC2=Nc3ccccc3C3=NC(C)C(=O)N23)c1 (stereo not drawn)	x	-1.2
COc1ccc(OC)c(C2Nc3c(C)cccc3-c3cc(C)nn32)c1 (stereo not drawn)	-1.3	2.8
O=C1CCSc2c1cccc2C(=O)N1CCN(Cc2ccc3c(c2)OCO3)CC1	x	1.5
Cc1nc2c(c(C)nn2C(C)(C)C)c(C)c1CCC(=O)NC1CCCCC1	-14	0.17
CCCCC1CCC(C(=O)NC(C(=O)O)C(C)C)CC1 (stereo not drawn)	1.9	1.5
CCOc1ccc2c(=O)c(Oc3ccccc3Br)c(C(F)(F)F)oc2c1	-0.03	0.61
Cc1cc(Nc2ccc(Br)cc2)nc(C)n1	-0.63	0.05
COc1cccc(C2C3=C(CC(C)(C)CC3=O)NC3=C2C(=O)c2ccccc23)c1 (stereo not drawn)	-2.4	-1.3
COc1cc(C2Oc3ccccc3C3CC(c4ccccc4O)=NN32)ccc1O (stereo not drawn)	-0.88	-0.87
NC(=O)c1nc(-c2cc(Br)ccc2F)nc2c1[nH]c(=O)n2-c1ccc(F)cc1	x	1.5
O=C(O)c1cccc(S(=O)(=O)Nc2ccc3oc(=O)sc3c2)c1	-2.6	2.3
c1ccc(C2OCC3OC(c4ccccc4)OC3CO2)cc1 (stereo not drawn)	-0.57	x
COc1ccc(-c2n[nH]c(=S)n2-c2ccc(C)cc2)cc1OC	0.03	x
O=C(COC(=O)c1ccccc1C(=O)c1ccc(-c2ccccc2)cc1)c1ccc(Cl)c([N+](=O)[O-])c1	-4.5	x
COCCNc1c(-c2ccc(Cl)cc2)c(=O)c1=O	x	0.52
COc1ccccc1OCCSc1nnc2[nH]c(=O)cc(N)n12	-2.1	1.1
Cc1ccccc1OCCn1c(=S)[nH]c2ccccc21	-0.77	x
COc1ccc(S(=O)(=O)N2CCN(c3cc(N4CCCCC4)nc(C)n3)CC2)cc1	-1.3	0.44
O=c1nc2cccc3c2=c(/c1=C(\O)c1ccccc1)c1ccccc1c3=O	-1.4	1.6
O=S1(=O)C[C@H](NC2CCCCC2)[C@@H](S(=O)(=O)c2cccs2)C1	-0.05	-3.6
CCSc1nnc(NC(=O)c2cc(-c3ccc(C)cc3)nc3ccccc23)s1	-3.3	x

Two of the compounds above, field by field.
compound: COc1ccc(S(=O)(=O)N2CCN(c3cc(N4CCCCC4)nc(C)n3)CC2)cc1
  CDC25B-CDK2 inh = -1.3 | HIV TAR-Tat = 0.44

compound: O=c1nc2cccc3c2=c(/c1=C(\O)c1ccccc1)c1ccccc1c3=O
  CDC25B-CDK2 inh = -1.4 | HIV TAR-Tat = 1.6

Later entries.
molecule	CDC25B-CDK2 inh	HIV TAR-Tat
Cc1ccc2ccc3cc(C(=O)O)nc3c2[nH]1	1	1.2
COc1cc(OC)c(NC(=O)c2nn(C)c3c2CS(=O)(=O)c2ccccc2-3)cc1Cl	0.1	0.79
Cc1cc(F)ccc1NS(=O)(=O)c1cc(-c2onc(C)c2C)ccc1C	x	1.2
CCOC(=O)CSc1nnc2c3ccccc3n(CC)c2n1	-1.9	-0.24
c1ccc(CSc2nc3ncccc3o2)nc1	x	-2.2
C=CCn1cnc2c1c(=O)[nH]c(=O)n2C	-1.5	-2.1
Cc1ccc(-n2nnc(-c3nc(-c4ccncc4)no3)c2N)cc1	x	-1.3
CCOC(=O)C1CCN(C(=O)Cn2c(=O)oc3cc(S(=O)(=O)NC4CCCC4)ccc32)CC1	x	1.3
Cc1ccc(C2Nc3ccccc3NC3=C2C(=O)CC(c2cccs2)C3)cc1 (stereo not drawn)	-0.78	3.5
COc1cc2c(=O)c(S(=O)(=O)c3ccc(F)cc3)cn(Cc3ccc(F)cc3)c2cc1OC	-0.15	0.45
Cc1cccc(CNc2nc3nc(C)c(Cl)c(C)n3n2)c1	-1.5	0.51
C=CCN1CC(c2nc3ccccc3n2Cc2ccccc2F)CC1=O (stereo not drawn)	-0.37	0.99
COc1ccc(OCC(O)Cn2c(NCc3ccco3)nc3c2c(=O)n(C)c(=O)n3C)cc1 (stereo not drawn)	-1.4	x
COc1ccc(C2Oc3ccccc3C3CC(c4cc(OC)ccc4O)=NN32)cc1 (stereo not drawn)	-0.5	-1.6
O=C(NCc1cccs1)c1cnn2c(C(F)(F)F)cc(-c3ccc(Br)cc3)nc12	x	2.4
COc1ccc(OCC(=O)OCc2cc(=O)n3nc(C(C)C)sc3n2)cc1	x	-0.79
CC(=O)Nc1ccc2[nH]c(C)c(C)c2c1	-2.3	2.1
Cc1ccc(-c2cccc3c(C(=O)O)cc(C)nc23)cc1	0.49	-0.24
Cc1cc2nc(COC(=O)C(c3ccccc3)c3ccccc3)cc(=O)n2o1	x	-0.32
Cc1nn(-c2ccccc2)c2c1C(=O)C(Br)C(c1ccccc1)C2 (stereo not drawn)	-2.9	-0.25
CCC(=O)N1c2ccccc2CC1C(=O)NCc1ccccn1 (stereo not drawn)	x	2.1
CN1C(C(=O)NC(C)(C)CO)=CC(c2cccs2)=NS1(=O)=O	-2.2	0.5
CC1(C(=O)NC2CCCCC2)Cn2c(ccc2-c2ccco2)C(=O)N1CCCN1CCCCC1 (stereo not drawn)	x	-0.83
CCN(CC)S(=O)(=O)c1ccc2[nH]cc(C(=O)NCC3CCCO3)c(=O)c2c1 (stereo not drawn)	1.5	x
COc1ccc2c(c1)CC(NC(=O)Nc1ccc(Br)cc1)CO2 (stereo not drawn)	x	0.52
O=C(Nc1ccc(OC(F)(F)F)cc1)Nc1cc(-c2cccs2)[nH]n1	-1.2	x
Cc1nc2c(C)cccn2c(=O)c1NC(=O)c1ccc(F)cc1F	x	0.77
COC(=O)c1cc(NC2c3ccccc3C(=O)N2c2cccnc2)cc(C(=O)OC)c1 (stereo not drawn)	-0.29	2.1
Cc1noc2ncnc(N3CC=C(c4ccccc4)CC3)c12	x	1
COC(=O)c1ccccc1S(=O)(=O)NC1C2(C)CCC(C2)C1(C)C (stereo not drawn)	0.66	x
Cc1nc(-c2ccccn2)nc(N(C)c2ccccc2)c1Cl	1.8	x
CCOCCCN1C(=O)c2c(NC(C)=O)c3cc(F)ccc3n2CC1(C)C(=O)NC1CCCC1 (stereo not drawn)	x	0.87
CC(C)Cn1cnc2nc(CSc3ccccc3NC(=O)c3ccco3)cc(=O)n21	-1.6	-0.95
O=C(O)c1ccc(CS(=O)Cc2ccccc2Cl)o1 (stereo not drawn)	x	1.7
O=C(O)c1ccc(OCc2ccccc2)cc1	-2.1	x
Nc1nc(NCc2ccccc2)nc(Nc2ccccc2F)c1[N+](=O)[O-]	x	0.23

Molecules from the list above that contain a cyano group, in the order listed:
molecule	CDC25B-CDK2 inh	HIV TAR-Tat
N#Cc1ccc(N2CCN(S(=O)(=O)c3cccc4nonc34)CC2)cc1	-0.37	x
CCc1c(C)sc(NC(=O)c2cc(C)no2)c1C#N	-1.4	-0.26

Hits appear at their usual frequency (roughly 0.87% active in at least one column).
